# BasE inh = inhibitors of Acinetobacter baumannii siderophore enzyme BasE; purified BasE, fluorescence polarization binding displacement; inhibition, % (concentration not given with the values); 84,000 compounds, 0.1% hits; AID 485350;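 active = both replicates above 25% with normal brightness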;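 note: 0% = negative plate control signal and 100% = positive plate control signal; stock transfer was 100 nL into about 30 µL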
# KSHV LANA nucl = inhibitors of KSHV LANA binding to nucleosomes; FITC-LANA1-23 / chicken nucleosome fluorescence polarization; active compounds read low; z-score (no concentration beside the values); 51,000 compounds, 0.3% hits;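 active = both repeat wells score below -2 in polarization z-score versus plate sample wells, excluding overly bright wells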;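 note: 100 nL library stock added to about 30 µL; numbers are from one replicate; some results filed as inactive read as strong as hits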
#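 Material: Purified chicken nucleosomes with FITC-labelled LANA N-terminal peptide (1-23) | Reagent: 50 nM FITC-LANA1-23 probe | Medium: TEN-BT buffer, pH 7.5 | Times: 10–45 min incubation at room temperature | Detection: Fluorescence polarization | Replication: Duplicates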
# Numbers without * were called inactive; nt = not tested or not shown; & = joins results of further samples.
Structure | BasE inh | KSHV LANA nucl
C[C@]12CCC(=O)C=C1C=CC1C2CC[C@@]2(C)C1CC[C@@]2(O)CCC(=O)O (stereo partly drawn) | -2.3 | 0.52&-0.28
Clc1ccc(CO/N=C(\Cn2ccnc2)c2ccc(Cl)cc2Cl)c(Cl)c1 | 2.3 | -0.46&-0.053&0.05
CN(C)C(=O)Nc1cccc(OC(=O)N(C)C)c1 | 1.0 | -0.22
CCC(N)C(O)c1ccc(O)c(O)c1 (stereo not drawn) | -0.2 | 0.45&0.22
Cn1c(=O)[nH]c2nncnc2c1=O | 1.9 | -0.12
CC1=C(C(=O)OC(C)(C)C)C2(C(=O)Nc3ccccc32)C(C#N)=C(N)O1 (stereo not drawn) | 2.1 | nt
Cc1cc(C(C)(C)C)cc(C)c1CCN | -2.3 | nt
CCCCC/C=C\C/C=C\C/C=C\C/C=C\CCCC(N)=O | 0.4 | -0.79
C(=NC12CN3CN(CN(C3)C1)C2)c1cccnc1 | 1.0 | nt
CN1CCC2(CC1)N1CC3(C)CN2CC(C)(C1)C3O (stereo not drawn) | 0.3 | 0.41
Oc1cc(Cl)ccc1Oc1ccc(Cl)cc1Cl | nt | 0.082
N#C/C(=C\C(=O)O)c1ccccc1 | nt | -1.7
CC1(C)CC2=NN(c3ccccc3)P(=S)(Nc3nccs3)C2=C(N2CCCC2)C1 (stereo not drawn) | -1.2 | nt
Cc1cc(OC(=O)N(C)C)cc(=O)n1C | -0.3 | nt
O=c1c2ccccc2[nH]c(=S)n1-c1cccc(C(F)(F)F)c1 | 0.3 | nt
CC(C)n1[nH]c(=O)c2c1NC(=O)CSC2c1ccc(Br)cc1 (stereo not drawn) | -0.7 | nt
COc1ccccc1OCC(=O)N1CCN(C(c2ccccc2)c2ccccc2)CC1 | 3.5 | -0.42
Cc1nc(COc2ccc(/C(N)=N/OC(=O)N(C)C)cc2)cs1 | -1.3 | 1
COCCn1cc(C(=O)N2CCC3(CC2)OCCO3)c2c3ccccc3n(C)c2c1=O | 2.1 | -1.4
O=C(O)C1(c2ccc(Cl)cc2)CCC1 | 1.6 | nt
C1=C(c2cccnc2)Nc2ncnn2C1c1cccs1 (stereo not drawn) | 21 | -8.8*
Cc1cc(O)ccc1Cl | -0.5 | -0.079&-0.72
S=C=NCc1ccco1 | 0.1 | nt
Cc1cc(C)nc(N2CCNCC2)n1 | 2.7 | 0.57
N#CC(C#N)=Cc1ccc(O)cc1 | -0.4 | 0.43
CC(C(=O)Nc1ccc2c(c1)OCCO2)N1CC=C(c2ccccc2)CC1 (stereo not drawn) | -0.4 | nt
CC(=O)NC1CCSC1=O (stereo not drawn) | -2.7 | 2
Cc1ccccc1NC(=O)OC1CN2CCC1CC2 (stereo not drawn) | nt | -0.41
O=C(CNC(=S)N1CC2CC(C1)c1cccc(=O)n1C2)N1CCCC1 (stereo not drawn) | 0.8 | 0.16
O=C1CN=C(c2ccc(F)cc2)c2cc(Br)ccc2N1 | -3.1 | 0.71
CCN1C[C@]2(OC(=O)c3ccccc3NC(C)=O)CC[C@H](OC)[C@@]34C2C[C@@H]([C@@H]13)[C@@]1(O)C[C@H](OC)[C@H]2CC4[C@]1(O)[C@H]2OC (stereo partly drawn) | -1.5 | 2.4
CCN(CC)C(=O)Oc1nc(-c2ccccn2)nc(COC)c1CC1CC1 | 2.1 | nt
Cc1ccccc1CC#N | 1.8 | nt
NNC(=O)c1ccccc1 | 3.3 | nt
CC1CCCC(C)N1CC#CCO (stereo not drawn) | 0.8 | 0.12
C/C(=N\N=C(N)N)c1ccccc1 | -0.5 | -1.2
CCN(C(=O)CN1CC=C(c2ccccc2)CC1)C1CCS(=O)(=O)C1 (stereo not drawn) | 1.2 | nt
O=C1C[C@@H]2OCC=C3CN4CC[C@]56c7ccccc7N1[C@H]5[C@H]2[C@H]3C[C@H]46 | nt | 0.33
Cc1cc(C)cc(NC2=NCCCS2)c1 | 0.4 | nt
CN1C2CCC1CC(OC(=O)CCN1CCOCC1)C2 (stereo not drawn) | -0.5 | nt

# Continued, starting with the last 6 of the part before.
Structure | BasE inh | KSHV LANA nucl
CC1CCCC(C)N1CC#CCO (stereo not drawn) | 0.8 | 0.12
C/C(=N\N=C(N)N)c1ccccc1 | -0.5 | -1.2
CCN(C(=O)CN1CC=C(c2ccccc2)CC1)C1CCS(=O)(=O)C1 (stereo not drawn) | 1.2 | nt
O=C1C[C@@H]2OCC=C3CN4CC[C@]56c7ccccc7N1[C@H]5[C@H]2[C@H]3C[C@H]46 | nt | 0.33
Cc1cc(C)cc(NC2=NCCCS2)c1 | 0.4 | nt
CN1C2CCC1CC(OC(=O)CCN1CCOCC1)C2 (stereo not drawn) | -0.5 | nt
CC[C@H]1CN2CCC1C[C@@H]2[C@@H](O)c1ccnc2ccc(OC)cc12 (stereo partly drawn) | -2.5 | 3.9
O=C(c1ccco1)c1cn(CCCOc2ccccc2)c2ccccc12 | 2.2 | -0.28
N#CC(C#N)=Cc1ccc(Sc2ccccc2)o1 | 2.8 | -1.3
O=c1c2ccccc2nc(-c2ccccc2)n1-c1ccccn1 | 1.4 | 0.19
COC(=O)N(c1ccc(OC)cc1)P1(=S)OCCC(C)O1 (stereo not drawn) | -4.0 | nt
CN1CCc2cc3c(cc2C1O)OCO3 (stereo not drawn) | -2.1 | -0.048&0.58
CC(=O)NC1CC2CCC(C1)N2 (stereo not drawn) | -0.9 | -1.2
Cc1nn(Cc2ccccc2Cl)c(C)c1C(=O)n1nnc2ccccc21 | 1.2 | nt
CN1CCc2c(C#N)c(Cl)nc(NCc3ccccc3)c2C1 | 1.7 | 0.063
CC1CC(C)CN(CC(=O)c2ccccc2Br)C1 (stereo not drawn) | -1.8 | nt
COc1ccc(CNC(=O)C(C)NC(C)=O)cc1 (stereo not drawn) | 1.1 | nt
CCn1c(SC)nnc1C1CCCNC1 (stereo not drawn) | 0.9 | 0.09
O=C(Nc1ccc2c(C(F)(F)F)cc(=O)oc2c1)c1cc(Cl)cc(Cl)c1 | 0.4 | nt
C[C@H](N)[C@H](O)c1ccccc1 | nt | -0.61&-1.3
COc1ccccc1-n1c(SC)nc2ccccc2c1=O | 0.4 | -1.2
CC1CCN(Cc2ccc(NC(=O)CCc3nc(C4=CCN(C)CC4)no3)cc2)CC1 | 3.0 | -0.45
CCCC1CN2CCC3=C(CCC3)C2(C)C1 (stereo not drawn) | -0.8 | nt
Cc1ccc(-n2c(CN)nc3ccccc3c2=O)cc1 | -0.3 | nt
CC(C)c1cccc(C(C)C)c1O | 1.5 | 0.17&-1.1&0.26
COC(=O)c1ccc(N2CCN(C)CC2)c(NC(C)=O)c1 | 0.7 | -1.2

# Continued.
# The line under a structure holds: BasE inh | KSHV LANA nucl
N#Cc1cc2c(nc1SCc1ccccc1F)C1CCN2CC1
  -2.4 | 1.5
C1CCN2C(C1)N1CCCCC1N1CCCCC21 (stereo not drawn)
  -0.6 | 0.29
CCOP(=S)(c1ccccc1)C(C#N)(CC)CC (stereo not drawn)
  0.8 | nt
O=C(CN1CCCN(Cc2ccccc2)S1(=O)=O)NC1CCCC1
  -1.5 | -0.03
Cc1ccc(CCN2CC(C(=O)N3CCC4(CC3)OCCO4)CC2=O)cc1 (stereo not drawn)
  1.4 | 0.78
CCN1CCN(C(=Nc2ccccc2)P(=S)(N(C)C)N2CCN(CC)CC2)CC1 (stereo not drawn)
  0.0 | nt
COc1ccc(NC(c2c[nH]c3ccccc23)P2(=S)OCC(C)(C)CO2)cc1 (stereo not drawn)
  -0.4 | nt
Cc1nccn1Cc1ccc(Cl)nc1
  nt | 3
O=C1C2CCC1C(N1CCCC1)CC2 (stereo not drawn)
  1.1 | 0.1
CCOC(=O)C1CCN(/C=C2/C(=O)NC(=O)N(c3cccc(C)c3C)C2=O)CC1
  0.6 | 0.087
CC(C)C(C(=O)NC1CN2CCC1CC2)c1ccc(Cl)cc1 (stereo not drawn)
  0.5 | nt
CN1C(=O)C(=Cc2ccc(Br)cc2)C(=O)N(C)C1=O
  -0.2 | 0.32
O=C(CN1CC=C(c2ccccc2)CC1)NCc1cccs1
  -2.4 | nt
COc1ccc(O)c(C(C)(C)C)c1
  -1.6 | -0.13
O=C1/C(=C/c2ccccc2C(F)(F)F)N2CCC1CC2
  nt | -0.81
CC12CN3CC(C)(CN(C1)C3(C)C)C2O (stereo not drawn)
  -0.5 | 0.44
Cc1ccc(C)c(CN2CCN(Cc3ccccc3)CC2)c1
  1.7 | -0.09
CCCCCCc1cc(O)c2c(c1)OC(C)(C)C1=C2CCN(C)C1
  -1.1 | -0.3
c1ccc(CN2CCN(Cc3ccc4c(c3)OCO4)CC2)cc1
  1.3 | -0.58
O=C(O)CCc1nc2ccccc2c(=O)n1-c1ccc(F)cc1
  3.8 | nt
CCOC(=O)C1(c2ccccc2)CCN(C(=O)c2c(C)oc3ccc(OC)cc23)CC1
  -1.1 | nt
COc1ccc(CC2C(=O)NC(=O)N(c3ccccc3)C2=O)c(OC)c1 (stereo not drawn)
  -1.7 | 0.47
CCN1C[C@@]2(COC)C3[C@@H](OC)[C@H]4[C@@H]1[C@]3(C(OC)C[C@H]2O)C1C[C@@]2(O)[C@H](OC(=O)c3ccccc3)C1[C@]4(OC(C)=O)[C@@H](O)[C@@H]2OC (stereo partly drawn)
  0.6 | -0.24&-0.24
O=c1oc2ccccc2n1CN1CC=C(c2ccccc2)CC1
  0.4 | nt
CN1C(C(=O)N2CCC3(CC2)OCCO3)=CC(c2ccc(F)cc2)=NS1(=O)=O
  0.9 | -0.93
COc1ccc(N=Cc2c(O)n(C)c(=O)[nH]c2=O)cc1
  0.3 | -0.8
COc1cc(OC)c(OC)cc1C=O
  -1.0 | -0.42
CC(C)N(Cc1ccccc1)C(=O)C(C)(C)C
  -1.0 | 0.24
NC1CCc2cc(O)c(O)cc2C1 (stereo not drawn)
  2.2 | -0.56
Cc1ccc(NP(C)(=O)c2nc3c(s2)CCCC3)cc1 (stereo not drawn)
  3.5 | nt

# Some of these compounds in order of formula weight, lowest first:
# The line under a structure holds: BasE inh | KSHV LANA nucl
COc1cc(OC)c(OC)cc1C=O
  -1.0 | -0.42
COc1ccc(N=Cc2c(O)n(C)c(=O)[nH]c2=O)cc1
  0.3 | -0.8
Cc1ccc(NP(C)(=O)c2nc3c(s2)CCCC3)cc1 (stereo not drawn)
  3.5 | nt
c1ccc(CN2CCN(Cc3ccc4c(c3)OCO4)CC2)cc1
  1.3 | -0.58
CCCCCCc1cc(O)c2c(c1)OC(C)(C)C1=C2CCN(C)C1
  -1.1 | -0.3
COc1ccc(CC2C(=O)NC(=O)N(c3ccccc3)C2=O)c(OC)c1 (stereo not drawn)
  -1.7 | 0.47

# Later entries
# The line under a structure holds: BasE inh | KSHV LANA nucl
CC(=O)Nc1cc([As](=O)(O)O)ccc1O
  -2.6 | 0.015&-0.35
N#CCCn1cc(C(=O)N(c2ccccc2)c2ccccc2)c(-c2ccccc2)n1
  1.9 | -0.065
CN1C(=O)/C(=C/c2ccc(I)o2)C(=O)NC1=S
  41* | 0.57
CC(=O)NC(C(=O)NCc1ccc(F)cc1)C(C)C (stereo not drawn)
  -0.9 | nt
CN1CCN(Cc2cc(C(C)(C)C)c(O)c(C(C)(C)C)c2)CC1
  0.0 | nt
CC1CN(C)C(C)(C)CC1(O)c1ccccc1 (stereo not drawn)
  2.4 | -0.34
Cc1nn(CCC#N)cc1C=C(C#N)C#N
  0.5 | nt
CCc1cc(OC(=O)N(C)C)nc(-c2ccc(F)c(Cl)c2)n1
  nt | 0.13
CCCc1nc(-c2ccccn2)nc(OC(=O)N(C)C)c1Cc1c(F)cccc1Cl
  1.1 | nt
CCCCC/C=C\C/C=C\CCCCCCCC(=O)NCCO
  -0.6 | -0.15
O=C1CC(=O)N(c2ccccc2)C(=O)N1
  0.4 | -0.28
C=C[C@H]1CN2CCC1C[C@@H]2[C@@H](O)c1ccnc2ccccc12 (stereo partly drawn)
  -4.4 | -0.048
CN1CCCCC1c1cccnc1N (stereo not drawn)
  0.0 | -1.1
Fc1cccc(CN2CCN(Cc3ccccc3)CC2)c1
  -1.9 | 0.11
N#CCCn1cc(C(=O)Nc2ccccc2)c(-c2ccc3c(c2)OCCO3)n1
  -4.8 | -0.058
CCOC(=O)C1CCN(Cc2ccc(Cl)nc2)CC1
  nt | 0.78
c1cncc(CNCCN2CCOCC2)c1
  0.1 | -1.6
C=CC(=O)N(CC)CC
  3.6 | -1.3
CN1C[C@H](C(=O)N[C@]2(C)C[C@@]3(O)C4CCCN4C(=O)[C@H](Cc4ccccc4)N3C2=O)C=C2c3cccc4[nH]cc(c34)C[C@H]21 (stereo partly drawn)
  nt | -0.25
COc1ccc(C(=O)c2c(C)n(CCN3CCOCC3)c3ccccc23)cc1
  nt | 0.23
CCOC(=O)/C(=C(/C)N1CCCC1)P(=S)(N1CCOCC1)N1CCOCC1
  -1.8 | nt
O=C(O)CCCc1ccc(N(CCCl)CCCl)cc1
  -3.3&-0.7 | 0.071&1.3&-0.53&0.43
CC(C)(C)c1cc(-n2nc3ccccc3n2)c(O)c(C(C)(C)C)c1
  -0.8 | nt
COP(=O)(OC)C(O)C(Cl)(Cl)Cl (stereo not drawn)
  -1.2 | -0.12
CN(N)P(=S)(c1ccccc1)N(C)N
  0.8 | nt
CNC(=S)N1CC2CC(C1)c1cccc(=O)n1C2 (stereo not drawn)
  0.9 | -0.44
Cc1cc(S(=O)(=O)NCC(C)C)ccc1OCC(=O)N1CCN(Cc2ccc3c(c2)OCO3)CC1
  -1.2 | 0.71
O=c1[nH]c2ccccc2c(=O)o1
  1.8 | -0.46
CCC1CCCCN1CC(=O)c1ccccc1Cl (stereo not drawn)
  -0.1 | nt
CCN1CCC(NC2CCC(O)CC2)CC1 (stereo not drawn)
  3.4 | -1.3
Cc1ccc(-n2cccc2C=C2C(=O)NC(=O)NC2=O)cc1Cl
  1.1 | -0.057
CCOCCCNC1CC(C)CC(C)(C)C1 (stereo not drawn)
  0.8 | nt
CCc1cnc(NC(=O)CN2CC3CC(C2)c2cccc(=O)n2C3)s1 (stereo not drawn)
  1.0 | -0.22

# From PubChem

# A portion of the library; rates above refer to the full screens.
